Bioassay records (PubChem BioAssay)
Bm FixLJ act = activators of Burkholderia fixLJ two-component system | B. multivorans fixK-promoter GFP reporter, 18 h; active compounds read high | z-score (concentration not given with the values) | 29,000 tested, 0.3% active | AID 1918990;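 active = replicate mean overnight rise in green fluorescent reporter signal, 3 or more SD over negative controls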;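 also: score is relative to vehicle wells of the plate; 300 nL library stock went into each well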
* = called active by the depositor. Not all compounds are listed; rates above refer to the full screens.

item	compound	Bm FixLJ act
1	CCC12CN3CC(C)(CN(C1)C3c1c(C)n(C)c3ccccc13)C2=O (stereo not drawn)	-0.68
2	Cc1ccc2nc(CNC(=O)N(C)CCc3c(C)n[nH]c3C)[nH]c2c1	-1.48
3	O=C(c1ccco1)N1CCC2(CC1)c1nc[nH]c1CCN2C(=O)C1CCC1	0.85
4	COCCN(Cc1c(C)nn(C)c1C)C(=O)C1=C(C)OCCO1	-0.69
5	COc1ccc(NC(=O)CSc2nnc3scc(-c4ccc(Cl)cc4)n23)cc1	-3.13
6	CC(=O)Nc1ccc(NC(=O)c2cc3sccc3n2Cc2ccc(F)cc2)cc1	0.79
7	Cc1ccccc1N1CCC(CNC(=O)c2cccc(N3CCNC3=O)c2)C1 (stereo not drawn)	-1.24
8	Cc1cc(C)c(NC(=O)Cn2nnc3sc4c(c3c2=O)CCC(C(C)(C)C)C4)c(C)c1 (stereo not drawn)	-0.81
9	CCc1nn(CC(=O)NCCCN2CCN(C)CC2)c(=O)c2cc3occc3n12	0.02
10	COc1cc(C2c3c(-c4c(C)cc(C)cc4O)n[nH]c3C(=O)N2CCO)cc(OC)c1OC (stereo not drawn)	-0.37

item	compound	Bm FixLJ act
11	O=C(c1cccc(F)c1)N1CCC(c2c[nH]c3ccccc23)(c2c[nH]c3ccccc23)CC1	0.37
12	CCOc1ccc(NC(=O)c2c(NC(=O)c3ccncc3)sc3c2CCC(C(C)(C)C)C3)cc1 (stereo not drawn)	1.22
13	CCN(C(=O)c1coc(=O)c2ccccc12)c1ccccc1C	0.27
14	CCN1CCN(C(=O)c2ccc3c(c2)N(Cc2ccccc2F)C(=O)c2ccccc2S3(=O)=O)CC1	-1.5
15	O=C(Nc1ncc(Cc2ccccc2Cl)s1)c1ccc2c(c1)CC(c1ccccc1)OC2=O (stereo not drawn)	-3
16	C=Cc1ccc(Cn2c(SCC(=O)N3CCN(c4ccc(F)cc4)CC3)nc3ccccc32)cc1	-0.03
17	CCOc1ccc2nc(Cl)c(C3CC(c4ccccc4)=NN3C(=O)CCC(=O)O)cc2c1 (stereo not drawn)	-2.48
18	CCn1cc(C(=O)N2CCN(c3cc(Cl)ccc3C)CC2)c(=O)c2cc(S(=O)(=O)N3CCOCC3)ccc21	-0.27
19	CN(CCC(=O)N(CC(=O)O)Cc1ccccc1)C1CCS(=O)(=O)C1 (stereo not drawn)	-1.88
20	Cc1ccc(S(=O)(=O)NCCCNC(=O)c2csc(C(C)C)c2)cc1	-1.02

Quoted from the listing:
entry 19 in Bm FixLJ act: -1.88
entry 18 in Bm FixLJ act: -0.27
entry 20 in Bm FixLJ act: -1.02
entry 14 in Bm FixLJ act: -1.5
entry 12 in Bm FixLJ act: 1.22

Further structures follow.
item	compound	Bm FixLJ act
21	Cc1ccc(CCNC(=O)c2cc3sccc3n2Cc2ccc(F)cc2)cc1	1.22
22	O=C(Nc1ccccc1Cl)[C@H](CSCc1ccccc1)N1Cc2ccccc2C1=O	0.7
23	COCCCn1c(=N)c(C(=O)NC2CCCC2)cc2c(=O)n3cc(C)ccc3nc21	-1.67
24	O=C(NCc1ccc(Cl)cc1)C1CCN(C(=O)c2cnn(-c3ccccc3)c2-n2cccc2)CC1	-1.2
25	O=C(Nc1ccc(C(=O)N2CCOC(CO)C2c2ccccc2)cc1)C1CCC1 (stereo not drawn)	1.01
26	Clc1ccc(NCc2nc3ccccc3n2CCOc2ccccc2)cc1	-0.71
27	Cc1ccc2c(c1)-c1c(cnc3cc(-c4ccc(F)cc4)nn13)CO2	-0.64
28	COc1ccccc1NC(=O)c1oc2ccccc2c1NC(=O)Cc1cccs1	-0.59
29	CCOc1ccc(NC(=O)c2cnn3c(C(F)F)cc(-c4ccc(C)cc4)nc23)cc1	-0.54
30	COc1ccc(CCN2C(=O)N(c3ccc(F)cc3)C(=O)C2CC(=O)Nc2ccccc2)cc1 (stereo not drawn)	-1.71

item	compound	Bm FixLJ act
31	COC(=O)c1c(NC(=O)C(C)Oc2ccc(Cl)c(C)c2)sc(C)c1C (stereo not drawn)	1.06
32	Cc1cccc(N2CCN(C(=O)CCc3nnc4n(CC(C)C)c(=O)c5ccccc5n34)CC2)c1C	-0.55
33	CCCSc1nc2sc3c(c2c(=O)n1-c1ccc(C)cc1)CCCC3	0.36
34	CC(C(=O)NCCSCc1cccc(Cl)c1)N(c1ccccc1)S(C)(=O)=O (stereo not drawn)	-2.19
35	Cc1sc2nc(CCN)nc(NCCc3ccncc3)c2c1C	0.09
36	NC1CC(c2cc(NCCN3CCCC3)nc(C3CC3)n2)C1 (stereo not drawn)	0.79
37	Cc1ccc2nc3c(cc(C#N)c(=O)n3-c3nnc(SCc4ccccc4Cl)s3)c(=O)n2c1	-0.08
38	COc1ccc(CCNC(=O)CN(C)Cc2nncn2C(C)C)cc1	-0.52
39	CC[C@H]1OC(=O)[C@H](C)[C@@H](O[C@H]2C[C@@](C)(OC)[C@@H](O)[C@H](C)O2)[C@H](C)[C@@H](O[C@@H]2O[C@H](C)C[C@H](N(C)C)[C@H]2O)[C@](C)(O)C[C@@H](C)/C(=N/OCOCCOC)[C@H](C)[C@@H](O)[C@]1(C)O	-1.47
40	COCCNC(=O)C1CCCN(C2CCN(c3cc(N)ncn3)CC2)C1 (stereo not drawn)	-1.49

item	compound	Bm FixLJ act
41	C[C@@H]1CC2C3CCC4=CC(=O)C=C[C@]4(C)[C@@]3(F)[C@@H](O)C[C@]2(C)[C@@]1(O)C(=O)COP(=O)(O)O (stereo partly drawn)	-0.26
42	Cc1nc(=O)[nH]c(C)c1CCC(=O)NC1(c2cc(F)cc(F)c2)CC1	-0.74
43	CCOC(=O)c1cc2c(=O)n3ccccc3nc2n(CCOC)c1=NC(=O)c1c(-c2ccccc2Cl)noc1C	1
44	COc1ccc(CCNC(=O)c2ccc3c(c2)N(Cc2ccc(C)cc2)CCS3)cc1OC	0.82
45	CCCC(=O)Nc1ccc2nn(-c3ccc(CC)cc3)nc2c1	-1.69
46	O=C(NC(c1ccc2c(c1)CCO2)C1CC(O)C1)c1cc(O)ccc1F (stereo not drawn)	-0.05
47	CCOc1ccc(CNC(=O)c2ccc3c(c2)N(CC)CCS3)cc1	0.99
48	COc1ccc(NC(=O)c2ccc3oc(=O)c(S(=O)(=O)c4ccc(C)cc4)cc3c2)cc1OC	0.43
49	Cc1ccc(Oc2nc3c(c(=O)n(Cc4ccccc4)c(=O)n3C)n2C)cc1C	-0.62
50	O=C(Nc1cc(F)ccc1F)c1cnn2c(C(F)F)cc(-c3ccccc3)nc12	0.13

item	compound	Bm FixLJ act
51	O=C(Nc1ccc(Br)cc1)C1CCCN(S(=O)(=O)c2ccc(Br)s2)C1 (stereo not drawn)	-2.03
52	CCOc1ccccc1CNc1nc2nc(C)cc(C)n2n1	-0.29
53	O=C1NCC(c2ccc(Cl)cc2)Cc2[nH]c(-c3ccc(O)cc3)nc21 (stereo not drawn)	0.1
54	COc1ccc(NC(=O)CCS(=O)(=O)c2nc(-c3ccc4c(c3)OCO4)cc(C(F)(F)F)n2)cc1	-1.53
55	CCOCCCNC(=O)C(c1ccccc1)N(Cc1cccs1)C(=O)c1ccc(NC(C)=O)cc1 (stereo not drawn)	-1.52
56	CCc1ccc(C2Sc3ccccc3NC3=C2C(=O)c2ccccc23)cc1 (stereo not drawn)	3.32*
57	COc1ccc(-n2ncc3c2ncn2nc(-c4ccc(Cl)cc4Cl)nc32)cc1	-0.38
58	CCCCC1CCC(C(=O)N2CC(=O)Nc3ccc(Cl)cc3C2c2ccc(F)cc2)CC1 (stereo not drawn)	0.29
59	Cc1sc(C2C(C#N)=C(N)N(c3cccc(Cl)c3)C3=C2C(=O)CCC3)cc1CN1CCOCC1 (stereo not drawn)	-0.51
60	O=C(NCCCN1CCCC(O)C1)c1ccc(-c2ccc3[nH]ccc3c2)cc1 (stereo not drawn)	0.08

item	compound	Bm FixLJ act
61	Cc1ccc(F)cc1CC(=O)N1CC(O)C(Cc2cnccn2)C1 (stereo not drawn)	0.43
62	Cc1ccccc1-c1nc(CS(=O)(=O)CC(=O)NCCc2ccccc2)c(C)o1	0.79
63	Cc1ccc(C)c(Cn2c(C(=O)O)c(CNCc3cccs3)c3ccccc32)c1	-1.18
64	Cc1cccc(N2CCN(C(=O)c3ccc4nc(N5CCC(C)CC5)sc4c3)CC2)c1C	-0.04
65	Cc1cc(C)c2c(=O)cc(C(=O)NCc3ccc(S(N)(=O)=O)cc3)oc2c1	1.53
66	CC(Cc1cnccn1)NC(=O)c1cn(CC=Cc2ccccc2)nn1 (stereo not drawn)	-1
67	CCc1cn[nH]c1C1CCN(C(=O)C(C)n2cc(C)cn2)CC1 (stereo not drawn)	-1.17
68	COc1ccc(OC)c(NC(=O)Cn2cc(S(=O)(=O)c3ccccc3)c(=O)c3cc(C)ccc32)c1	-1.07
69	CCOC(=O)Cn1c(=O)oc2cc(S(=O)(=O)NC(C)c3ccccc3)ccc21 (stereo not drawn)	-0.35
70	CC1(C)S[C@@H]2[C@H](NC(=O)C(C(=O)O)c3ccccc3)C(=O)N2[C@H]1C(=O)O (stereo partly drawn)	-0.69

item	compound	Bm FixLJ act
71	Cc1cccc(S(=O)(=O)NC(c2cnn(C)c2)C2CC(O)C2)c1 (stereo not drawn)	-0.43
72	COC1C(NC(=O)C(C)C)c2ccccc2C12CCNCC2 (stereo not drawn)	-1.48
73	Cc1nn(C)c2nc(N3CCC(c4cccc(C#N)c4)CC3)sc12	0.35
74	CSCCC(NC(=O)c1nn(C)c2ccccc12)C(=O)O (stereo not drawn)	0.47
75	CCn1c(=O)c2cc(C(=O)NCc3cc(OC)ccc3OC)sc2c2ccccc21	-0.01
76	CCCn1ncc(C(=O)NC2CCN(c3ccccc3)CC2)c1C	0
77	CC(=O)Nc1ccc(NC(=O)Cn2cc3c(n2)CCCCC3)cc1	-0.5
78	Cc1nn(-c2ccccc2)c(C)c1CC(=O)NC1CCC(NC(=O)c2ccon2)C1 (stereo not drawn)	-0.84
79	CCc1ccc(-n2nc(CO)c(C(=O)NC(C)c3ccc(Cl)cc3)n2)cc1 (stereo not drawn)	0.12
80	COc1ccc2c(c1)c(=O)c(C(=O)c1ccc(C)cc1)cn2Cc1ccccc1F	0.7

Gathered by group: the compounds so far containing a furan ring, fused or not
item	compound	Bm FixLJ act
3	O=C(c1ccco1)N1CCC2(CC1)c1nc[nH]c1CCN2C(=O)C1CCC1	0.85
9	CCc1nn(CC(=O)NCCCN2CCN(C)CC2)c(=O)c2cc3occc3n12	0.02
28	COc1ccccc1NC(=O)c1oc2ccccc2c1NC(=O)Cc1cccs1	-0.59

(cont.)
item	compound	Bm FixLJ act
81	CCC(=O)N1CCc2cc(Br)cc(S(=O)(=O)CCC(=O)Nc3ccc(C)c(F)c3)c21	-0.68
82	COc1ccc(OC)c(CNc2ncc(-c3ccc(Cl)cc3)n2C)c1	-3.1
83	COc1cccc(N2CCN(C(=O)C3CCN(S(=O)(=O)c4c(C)noc4C)CC3)CC2)c1	0.45
84	COc1ccc(-n2c(=O)c3sc4ccccc4c3n(CC(=O)Nc3ccccc3F)c2=O)cc1	-1.17
85	COC(=O)c1ccc(Nc2nnc(-c3ccc(C)c(S(=O)(=O)N4CCN(C)CC4)c3)c3ccccc23)cc1	-0.44
86	COc1cccc(-c2cc(C(F)(F)F)nc(NCCc3ccccc3)n2)c1	0.4
87	CCOc1ccc(S(=O)(=O)N2CCN(c3ccc(Cl)c(Cl)c3)CC2)c2ccccc12	0.45
88	CCN(CC)S(=O)(=O)c1ccc2c(c1)c(=O)c(C(=O)N1CCN(c3cc(Cl)ccc3C)CC1)cn2C	-4.2
89	CCn1c(=O)cc(SCC(=O)NCCc2cccc(C)c2)c2ccccc21	-1.27
90	O=C(Cn1nccc1C1CCCNC1)N1CCN(Cc2ccccc2)CC1 (stereo not drawn)	-0.67

Exported with each value named: 4 of the compounds above.
57) COc1ccc(-n2ncc3c2ncn2nc(-c4ccc(Cl)cc4Cl)nc32)cc1
  Bm FixLJ act = -0.38

78) Cc1nn(-c2ccccc2)c(C)c1CC(=O)NC1CCC(NC(=O)c2ccon2)C1 (stereo not drawn)
  Bm FixLJ act = -0.84

9) CCc1nn(CC(=O)NCCCN2CCN(C)CC2)c(=O)c2cc3occc3n12
  Bm FixLJ act = 0.02

22) O=C(Nc1ccccc1Cl)[C@H](CSCc1ccccc1)N1Cc2ccccc2C1=O
  Bm FixLJ act = 0.7

Following part:
item	compound	Bm FixLJ act
91	Fc1cccc(Cl)c1CNCCSc1nnnn1-c1ccccc1	-2.28
92	CCOC(=O)c1cc(-c2ccc(C)cc2)n(CCC(=O)Nc2nc3c(C)cccc3s2)c1C	-0.6
93	CC1=C(C(=O)Nc2ccccc2C)C(c2cccs2)n2nc(SCc3ccccc3)nc2N1 (stereo not drawn)	-1.16
94	CC(C)(C)c1ccc(OCCn2cc(C(=O)c3ccco3)c3ccccc32)cc1	0.51
95	COc1cccc2cc(C(=O)NCCc3c(C)[nH]c4ccc(F)cc34)c(=O)oc12	-3.08
96	COc1ccc(NC(=O)CCS(=O)(=O)c2cccc3nonc23)cc1Cl	-2.33
97	CC1CCN(c2nc3ccccc3nc2SCC(=O)Nc2ccccc2C(C)C)CC1	-1.35
98	CCOc1ccccc1NC(=O)Cn1c(=O)n(Cc2ccco2)c(=O)c2ccc(C(=O)NC3CCCC3)cc21	-1.61
99	NCCCCCC(=O)O	-0.11
100	COc1ccc(N2Cc3cccc(C(=O)Nc4cccc(F)c4)c3C2=O)cc1	-0.94

item	compound	Bm FixLJ act
101	COc1ccc(-c2cc(C(F)(F)F)nc(SCC(=O)N3CCCCC3C)n2)cc1OC (stereo not drawn)	-1.38
102	COc1ccc(NC(=O)Cn2nnc(C(=O)NCc3ccco3)c2N)c(OC)c1	0.01
103	COc1ccc(F)c(F)c1C(=O)N1CCC(N2CCC(O)CC2)CC1	-0.89
104	CCOc1ccc(CC(=O)Nc2c(C(=O)c3ccc(Cl)cc3)oc3ccccc23)cc1OCC	1.61
105	CCC(O)c1cc2c(cc1NC(=O)c1cccc(Br)c1)OCCO2 (stereo not drawn)	-2.18
106	O=c1c2sc3ccccc3c2n(Cc2ccccc2)c(=O)n1Cc1ccccc1	0.58
107	CCc1cccc(NC(=O)CCC(=O)NCc2cc(C(C)C)no2)c1	-1.29
108	COc1ccccc1CN(C(=O)c1cccc(-c2noc(C)n2)c1)C1CC1	0.67
